High-throughput results deposited in PubChem BioAssay by National Center for Advancing Translational Sciences (NCATS).
BLM helicase inh: qHTS Assay for Inhibitors of Bloom's syndrome helicase (BLM); RecQ-like DNA helicase BLM (Homo sapiens), P54132; Potency, µM (titrated, usually from 56.1 µM), inactives show top-dose activity change, negative = inhibition, hits mostly inhibitors; 350,000 tested, 0.2% active; AID 2528, 2010; recombinant BLM DNA unwinding, fluorescence dequenching;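 further: plate controls were vehicle for no effect and no enzyme for full effect; nearly all actives have a fitted effect of over 35% in size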
POLK inh: qHTS for Inhibitors of Polymerase Kappa | Potency, µM (titrated, usually from 107 µM), inactives show at the top dose activity, negative = inhibition, actives largely listed as inhibitors | AID 588579, 2011 | purified Pol kappa, fluorescent DNA synthesis assay, 10 min | 400,000 tested, 0.53% active; further: on the % scale 0 is the no-effect control and ±100 the full control effect
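Pol kappa 10 nM + cpd, 15 min RT; start w/ substrate 50 nM final; fluorescence kinetic read, 0 and 10 min. Neg ctrl: buffer, no enzyme.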
POLI inh: qHTS for Inhibitors of Polymerase Iota | Pol iota fluorescent replication assay, 10 min | DNA polymerase iota (Homo sapiens), Q9UNA4 | Potency, µM (series often up to 115 µM), inactives show top-dose activity, negative = inhibition, actives largely listed as inhibitors | 390,000 tested, 1% active | AID 588590, 2011
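Pol iota at 10 nM preincubated 15 min with compounds at room temperature; reaction started with fluorescent substrate, 50 nM final. Fluorescence read kinetically at 0 and 10 min; buffer-only wells as negative control.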
POLB inh: qHTS Assay for Inhibitors of DNA Polymerase Beta; Potency, µM (top dose mostly 114 µM), inactives show at the highest dose activity change, negative = inhibition, most hits filed as inhibitors; 340,000 tested, 1.3% active; AID 485314, 2010; Pol beta primer extension/strand displacement, fluorescence kinetic; further: on the % scale 0 is the no-effect control and ±100 the full control effect
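Human Pol beta at 10 nM; strand-displacement substrate 50 nM final. Compound exposure 15 min at room temperature before start, reaction 10 min at room temperature.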
APEX1 inh: qHTS Assay for Inhibitors of the Human Apurinic/apyrimidinic Endonuclease 1 (APE1) | DNA repair nuclease/redox regulator APEX1 (Homo sapiens), P27695 | Potency, µM (highest dose often 65.8 µM), inactives show at the top dose activity change, negative = inhibition, usual class: inhibitors | recombinant APE1, TAMRA/BHQ-2 abasic DNA cleavage fluorescence | 350,000 tested, 0.35% active;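 further: plate controls were vehicle for no effect and reference inhibitor for full effect; nearly all actives have a fitted effect of over 55% in size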
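Activity was derived from the fluorescence gain between first and third kinetic reads (60 s intervals, ex 525/em 598 nm) after 50 nM THF-abasic TAMRA/BHQ-2 duplex was added to 0.75 nM APE1 preincubated 15 min with compound.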
The depositor's hits bear a star; u = inconclusive; x = not tested or not shown; & = joins results of further samples; [ ] = remark or other dose. The call rests on the fitted dose curve; in most records, active means well fitted curve in the direction sought with a large enough effect; inconclusive means small, poorly fitted or top-dose-only effect, or another doubt; inactive means no such curve, though single readings can be large; an effect the other way counts as inactive or inconclusive. Potency means the concentration at half of the fitted maximal effect. These rows are one share of the data; rates above refer to the full screens.

item | SMILES | BLM helicase inh | POLK inh | POLI inh
1 | CC[C@H](CO)Nc1nc(NCc2ccccc2)c2ncn(C(C)C)c2n1 | x | 3%&9%[19.4 µM] | -9%[58.9 µM]
2 | NNC(=O)c1nc[nH]c1C(=O)Nc1ccc(Cl)cc1C(=O)c1ccccc1 | -3% | -7% | -17%
3 | CC1CCN(CC(=O)c2cccc(C(F)(F)F)c2)CC1 | -1% | -5% | 36%[activator]
4 | Cc1ccc(F)cc1NC(=O)c1ccc(Cn2nc(N3CCN(c4ccccc4)CC3)ccc2=O)o1 | -17% | -11% | u
5 | Cc1ccc(OCC(=O)N2CCN(CC3CC4C=CC3C4)CC2)cc1 (configuration not stated) | 0% | 5% | -3%
6 | CC(C)c1ccc(C2NCc3ccccc3-n3cccc32)cc1 (configuration not stated) | -5% | -12% | -11%
7 | CC[C@H]1CN2CCc3cc(OC)c(OC)cc3C2C[C@@H]1C[C@H]1NCCc2cc(OC)c(OC)cc21 (some centres not stated) | x | 8% | 17%
8 | Cc1ccc(C(C)C)c(OCC#CCN2CCCC2)c1 | -6% | 3% | 15%
9 | O=C(Cc1ccccc1)N1CCN(Cc2cccc(Br)c2)CC1 | 3% | -4% | 24%
10 | Cc1ccc(OCC(=O)N2CCN(Cc3ccc(F)cc3)CC2)cc1 | -1% | 3% | -6%
11 | Clc1ccc(OCC#CCN2CCCCCC2)cc1 | -3% | -4% | u
12 | Nc1cccc([N+](=O)[O-])c1 | -5% | -9% | 19%

item | POLB inh | APEX1 inh
1 | -16%[57.1 µM] | -2%&3%&2%
2 | -20% | -7%
3 | 4% | -13%
4 | u | x
5 | 17% | -2%
6 | -21% | 23%
7 | x | 15%
8 | 34% | 1%
9 | 5% | 9%
10 | -5% | x
11 | 6% | 3%
12 | 47% | 5%&16%

Next compounds.
item | SMILES | BLM helicase inh | POLK inh | POLI inh
13 | CCOc1cc2c(cc1OCC)-n1cccc1C(c1ccccc1OC)NC2 (configuration not stated) | 1% | 0% | 5%
14 | CC[C@H]1CN2CCc3cc(OC)c(OC)cc3[C@@H]2C[C@@H]1C[C@H]1NCCc2cc(OC)c(OC)cc21 | -10% | -11%[60.1 µM] | 36%[activator]
15 | O=c1oc2ccccc2c(O)c1Cc1c(O)c2ccccc2oc1=O | -12% | -8%[60.1 µM] | x
16 | Cc1cccc([N+](=O)[O-])c1 | x | 19% | -4%
17 | CCOc1ccc(CN2CCN(C(=O)Cc3ccccc3)CC2)cc1 | -5% | -1% | 0%
18 | Cc1ccc(-n2c(/C=C/c3ccc(Br)s3)nc3ccccc3c2=O)cc1C | -7% | -11%[60.1 µM] | -8%
19 | O=[N+]([O-])c1cccc(CCl)c1 | x | 1% | -6%
20 | CCOc1cc2c(cc1OCC)-n1cccc1C(c1ccc(C(C)C)cc1)NC2 (configuration not stated) | -7% | -10% | 40%[activator]
21 | CN(c1ccccc1)c1ccc([N+](=O)[O-])c2nonc12 | -1% | -16% | 106%[activator]

item | POLB inh | APEX1 inh
13 | -10% | 36%
14 | 6% | 17%&17%&13%
15 | x | 14%
16 | x | 10%&0%
17 | 26% | -6%
18 | 5% | x
19 | x | 33%&5%
20 | 1% | 14%
21 | -1% | 47%[activator]
